Source: PubChem (Broad Institute)
rRNA inh HTS – inhibitors of bacterial rRNA selective over humanized ribosomes | E. coli WT GFP vs humanized-ribosome RFP mutants, fluorescence, 24 h; stronger effect = lower value; DMSO median 0, no signal -100 | GFP signal change (wild-type ribosome), % (test concentration not listed) | 1.6% of 350,000 active | AID 720706;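 active = significant combined selectivity score with lowered wild-type GFP, culture density cut under 30%, mutant RFP and density less affected; inactive = any of these conditions unmet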; note: one replicate is shown; some compounds called inactive have numbers as strong as hits
MLL AF4-AF9 inh – blocks AF4 peptide binding to human AF9; AlphaScreen, biotin-AF4 peptide binding to FLAG-AF9; P42568; 0.47% of 350,000 active; inhibition, % at 10 µM;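 active = every replicate reaching a set inhibition limit, whatever the replicate mean, cut at about 25% in these data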;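 note: 0% = plate neutral control median and 100% = total signal loss; the record names both 10 and 1 µM as test concentration; the first replicate is given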
Target sequence (P42568 whole entry, looked up): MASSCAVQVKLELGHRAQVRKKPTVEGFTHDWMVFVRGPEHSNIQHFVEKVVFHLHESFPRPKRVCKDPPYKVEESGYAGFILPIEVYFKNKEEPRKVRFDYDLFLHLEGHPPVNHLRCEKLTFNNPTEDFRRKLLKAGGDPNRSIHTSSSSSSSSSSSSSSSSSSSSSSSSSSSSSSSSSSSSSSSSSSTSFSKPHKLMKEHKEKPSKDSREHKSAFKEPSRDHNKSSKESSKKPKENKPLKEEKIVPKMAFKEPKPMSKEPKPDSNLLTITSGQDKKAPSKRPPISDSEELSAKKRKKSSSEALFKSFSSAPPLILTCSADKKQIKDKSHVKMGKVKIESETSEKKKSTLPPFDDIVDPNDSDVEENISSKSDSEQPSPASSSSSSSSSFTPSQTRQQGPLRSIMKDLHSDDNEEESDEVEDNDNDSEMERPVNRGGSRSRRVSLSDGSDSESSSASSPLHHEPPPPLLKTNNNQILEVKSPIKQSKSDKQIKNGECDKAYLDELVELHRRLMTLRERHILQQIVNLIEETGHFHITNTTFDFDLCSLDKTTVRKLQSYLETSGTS
FGF22 binding – binders of recombinant human FGF22 by thermal shift. 1.5% of 340,000 active. SYPRO orange fluorescence; percent of sucrose octasulfate shift, DMSO zero. calls only at 9.99 µM. Q9HCT0. AID 651658;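 active = melting point raised past a set limit in the mean and every replicate; three in four hits are not shown here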
Target sequence (Q9HCT0 whole entry, looked up): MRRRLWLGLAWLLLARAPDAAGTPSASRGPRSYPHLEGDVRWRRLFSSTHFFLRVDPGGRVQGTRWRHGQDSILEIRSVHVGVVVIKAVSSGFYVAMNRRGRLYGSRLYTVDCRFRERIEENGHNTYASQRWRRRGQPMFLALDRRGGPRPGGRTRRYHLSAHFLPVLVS
rRNA inh HTS OD600 – also measured in rRNA inh HTS; calls as there; OD600 change, %; measured here: OD600 growth;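 optical density of the mix in the first replicate; 0 = DMSO median and -100 = no signal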
rRNA inh HTS RFP – recorded beside rRNA inh HTS, whose call it bears; RFP signal change, %; measured here: RFP humanized mutant strains;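 first replicate; 0 = DMSO median and -100 = no signal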
The depositor's hits bear a star; i = inactive; · = no result given; & = joins results of further samples. Only part of the results is shown. The share of hits here may be higher or lower than overall.

Codes – A = rRNA inh HTS; B = rRNA inh HTS OD600; C = rRNA inh HTS RFP; D = MLL AF4-AF9 inh; E = FGF22 binding
COc1ccc(-c2cccc(-c3cc(=O)oc4ccc(C(C)(C)C)cc34)c2)cc1
  A: 11	B: 16	C: -3.4	D: -1.7	E: i
CCc1cc2c(nc1CC)CCCN2S(=O)(=O)c1ccc(C#N)cc1
  A: -28	B: -53	C: -4.6	D: -1.1	E: ·
C[C@H]1CN([C@@H](C)CO)C(=O)c2cc(NC(=O)CCCCCC(=O)Nc3ccccc3N)ccc2O[C@H]1CN(C)S(=O)(=O)c1cn(C)cn1
  A: 2	B: 8	C: 0.4	D: -2.7	E: i
O=C(C[C@H]1C[C@H]2c3cc(NC(=O)Nc4ccccc4F)ccc3O[C@H]2[C@H](CO)O1)NCC1CC1
  A: -3	B: -8	C: -1.2	D: 0.9	E: i
C[C@@H]1CN([C@@H](C)CO)C(=O)c2cc(C#Cc3ccncc3)cnc2O[C@H]1CN(C)C(=O)CN(C)C
  A: 2	B: 10	C: 1.1	D: -7.8	E: i
CC(C)NC(=O)Nc1cccc2c1O[C@@H](CN(C)C(=O)Nc1cccc3ccccc13)[C@H](C)CN([C@H](C)CO)C2=O
  A: 1	B: 1	C: 0.4	D: 2.7	E: i
Cc1ccc(S(=O)(=O)N(C)C[C@@H]2Oc3ccc(NC(=O)Cc4cn(C)c5ccccc45)cc3C(=O)N([C@@H](C)CO)C[C@@H]2C)cc1
  A: -3	B: 0	C: 0.1	D: 3.7	E: i
CCOC(=O)[C@H](C)N1[C@H](C)[C@H](c2ccccc2)Oc2ccc(Cl)cc2S1(=O)=O
  A: 3	B: 2	C: -3.4	D: -4.0	E: i
O=C(NCC[C@H]1CC[C@@H](NC(=O)c2cccnc2)[C@H](CO)O1)Nc1ccc(Cl)cc1
  A: 0&-52	B: -3&-62	C: -0.9&-3.8	D: 12	E: i
CN(C)CC1C2CCC(C2)C1O (configuration not stated)
  A: 11	B: 14	C: 5.1	D: -1.5	E: i
C[C@H]1CN([C@@H](C)CO)C(=O)c2cccc(NC(=O)Nc3cccc4ccccc34)c2O[C@@H]1CN(C)S(=O)(=O)c1ccc(F)cc1
  A: -1	B: -6	C: -2.0	D: 0.6	E: i
Cc1cccc(S(=O)(=O)N2C[C@H]3[C@@H](c4ccccc42)[C@H](CO)N3Cc2ccc3c(c2)OCO3)c1
  A: -14	B: -29	C: 0.0	D: 3.1	E: i
CC(C)CCNC(=O)[C@@H](Cc1ccccc1)NC(=O)CC[C@H]1O[C@@H](n2ccc(=O)[nH]c2=O)[C@H](O)[C@@H]1O
  A: 5	B: 12	C: -7.1	D: 0.7	E: i
CC(=O)N(C)C[C@@H]1Oc2cc(-c3ccc(C#N)cc3)ccc2S(=O)(=O)N([C@H](C)CO)C[C@H]1C
  A: -1	B: -6	C: -4.9	D: 2.2	E: i
COc1cccc(S(=O)(=O)N2CCCCN3[C@H](C2)[C@@H](c2ccc(-c4cccnc4)cc2)[C@@H]3CO)c1
  A: -14	B: -30	C: 19	D: -2.5	E: i
CC1(C(=O)NS(=O)(=O)c2ccc(C#N)cc2)CCN1C(=O)C1(c2ccccc2)CCCC1 (configuration not stated)
  A: -4	B: 16	C: 5.0	D: -0.6	E: i
C[C@@H]1CCCCO[C@H](CN(C)C(=O)CCCN(C)C)[C@H](C)CN([C@H](C)CO)C(=O)c2cc(NC(=O)NC3CCCCC3)ccc2O1
  A: 2	B: -4	C: -0.6	D: 3.0	E: i
Cc1noc(C)c1NC(=O)N(C)C[C@@H]1Oc2ccc(NC(=O)CCN3CCOCC3)cc2CC(=O)N([C@@H](C)CO)C[C@@H]1C
  A: 2	B: 8	C: -2.6	D: -11	E: i
COc1ccc(S(=O)(=O)Nc2ccc3c(c2)C(=O)N([C@H](C)CO)C[C@H](C)[C@H](CN(C)C(=O)CCCN(C)C)OCCCC[C@@H](C)O3)cc1
  A: 2	B: 7	C: -0.8	D: -0.9	E: i
CCCCC[C@H](C)N1C[C@@H](COCc2ccccc2)Oc2cc(N3CC[C@H](N(C)C)C3)ccc2S1(=O)=O
  A: -12	B: -7	C: 17	D: 2.2	E: i
COCC#Cc1cnc2c(c1)C(=O)N([C@H](C)CO)C[C@@H](C)[C@@H](CN(C)C(=O)C1CCOCC1)O2
  A: 7	B: 13	C: -0.2	D: -3.1	E: i
CCOC(=O)C1(C)CCN1C(=O)c1csnn1 (configuration not stated)
  A: 9	B: 19	C: 0.4	D: -2.9	E: i
CC(C)C[C@H]1CN([C@@H](CC(C)C)CN2CCC[C@@H]2CN2C(=S)NC[C@@H]2Cc2ccc(O)cc2)C(=S)N1CC1CCCCC1
  A: 26	B: 19	C: 11	D: 6.8	E: i
O=C(C[C@@H]1CC[C@@H](NC(=O)Cc2ccccn2)[C@@H](CO)O1)NCCCN1CCOCC1
  A: 2	B: 1	C: -3.3	D: -1.0	E: i
C[C@H]1CN([C@@H](C)CO)S(=O)(=O)c2ccc(C#CC3CCCC3)cc2O[C@@H]1CN(C)C(=O)Nc1cc(F)ccc1F
  A: 2	B: 0	C: -5.5	D: 3.0	E: i
C[C@@H]1CN([C@@H](C)CO)C(=O)c2cc(NC(=O)Cc3ccccc3)ccc2O[C@@H](C)CCCCO[C@@H]1CN(C)C(=O)NC1CCCCC1
  A: 0	B: -1	C: -1.4	D: 0.5	E: i
C[C@H](O)C#Cc1cnc2c(c1)C(=O)N([C@@H](C)CO)C[C@H](C)[C@@H](CN(C)C(=O)Cc1ccccn1)O2
  A: 2	B: 9	C: 1.0	D: -4.4	E: i
C[C@H]1CN([C@@H](C)CO)C(=O)CCCn2nncc2CO[C@H]1CN(C)S(=O)(=O)c1ccc2c(c1)OCCCO2
  A: -2	B: 1	C: 1.2	D: 0.9&1.6	E: i
C[C@@H]1CN([C@H](C)CO)C(=O)c2cc(-c3ccc(C#N)cc3)cnc2O[C@@H]1CN(C)Cc1cccnc1
  A: 1	B: 4	C: 2.7	D: -4.9	E: i
Cc1noc(C)c1NC(=O)N1C[C@H](O)COC[C@@H]2O[C@@H](CC(=O)NCC3CCCCC3)CC[C@H]21
  A: 1	B: -2	C: 0.1	D: -1.6	E: i
Cc1ccc(S(=O)(=O)N(C)C[C@H]2Oc3ccc(NC(=O)Nc4ccc(F)cc4)cc3C(=O)N([C@@H](C)CO)C[C@H]2C)cc1
  A: 0	B: -21	C: -6.2	D: 1.5	E: i
O=C(CN1CCOCC1)NC[C@H]1N[C@H](CO)[C@@H]1c1ccc(-c2ccccc2)cc1
  A: -1	B: 4	C: 1.3	D: 0.0	E: i
CCCNC(=O)N1[C@H](CO)[C@H](c2ccccc2-c2cccc(OC)c2)[C@@H]1C#N
  A: 5	B: 6	C: -3.9	D: -1.4	E: i
O=C(Nc1ccc(F)cc1)N[C@H]1C=C[C@H](CC(=O)N2CCCCC2)O[C@@H]1CO
  A: 1	B: 1	C: 0.1	D: -1.8	E: i
C[C@@H]1CN([C@H](C)CO)C(=O)c2cc(-c3ccccc3)cnc2O[C@@H]1CN(C)C(=O)Cc1cccnc1
  A: 1	B: 10	C: -0.8	D: -1.0	E: i
C[C@H]1CN([C@@H](C)CO)C(=O)c2c(c3ccccc3n2C)-c2ccccc2CO[C@@H]1CN(C)Cc1ccncc1
  A: -29*	B: -22*	C: 4.2*	D: 0.2	E: i
C[C@@H]1CN([C@H](C)CO)C(=O)c2cc(NC(=O)CCN3CCOCC3)ccc2O[C@@H]1CN(C)S(=O)(=O)c1ccc(F)cc1
  A: 3	B: 8	C: -0.3	D: -3.8	E: i
COC1=C(Nc2ccc(OC)cc2)C(=O)C(OC)=C(Nc2ccc(OC)cc2)C1=O
  A: 2	B: 8	C: 1.4	D: 10	E: i
C[C@@H]1CN([C@H](C)CO)C(=O)c2cc(-c3cccnc3)cnc2O[C@H]1CN(C)Cc1ccc(Oc2ccccc2)cc1
  A: -6	B: -16	C: 18	D: 11	E: i
C[C@@H](O)C#Cc1ccc([C@@H]2[C@H](CO)N3CCCCN(CC4CC4)C[C@@H]23)cc1
  A: 8	B: 3	C: 2.5	D: 11	E: i
CCC(=O)N1C[C@@H]2[C@H](c3ccccc31)[C@H](CO)N2CC1CCCC1
  A: -5	B: 8	C: -0.3	D: -4.2	E: i
O=C(C[C@H]1C=C[C@H](NC(=O)Nc2ccc3c(c2)OCO3)[C@@H](CO)O1)NCc1ccccc1
  A: 0	B: -2	C: -0.8	D: 0.9	E: i
CCCN(C)C[C@@H]1Oc2ncc(-c3ccccc3OC)cc2C(=O)N([C@@H](C)CO)C[C@@H]1C
  A: 3	B: 1	C: -2.9	D: -1.9	E: i
C=CCOC(=O)c1ccccc1C(=O)OCC=C
  A: 8	B: 8	C: 12	D: -3.3	E: i
CCCCCc1nnc(NC(=O)c2cccc(S(=O)(=O)N3CCOCC3)c2)s1
  A: -8	B: -21	C: 0.7	D: -0.5	E: i
O=S(=O)(c1ccccc1)N1CCCCN2[C@H](CO)[C@@H](c3ccc(-c4cncnc4)cc3)[C@@H]2C1
  A: 0	B: 1	C: -3.2	D: -5.4	E: i
COc1cccc(C2C(C(=O)c3ccco3)=C(O)C(=O)N2CCCN2CCOCC2)c1OC (configuration not stated)
  A: 8	B: 2	C: 1.2	D: -23	E: i
CCC(=O)N1C[C@H](C)[C@@H](OC)CN(C)C(=O)c2cc(NC(=O)Nc3cccc(F)c3)ccc2OC[C@H]1C
  A: -2	B: -8	C: 2.3	D: 6.1	E: i
O=[N+]([O-])c1ccc(O)c(C=NN2CCCCC2)c1
  A: 16	B: 26	C: 0.2	D: -1.3	E: i
COc1ccc(S(=O)(=O)Nc2cccc3c2O[C@H](CN(C)Cc2ccc(-c4ccccc4)cc2)[C@H](C)CN([C@@H](C)CO)C3=O)cc1
  A: 3	B: 3	C: -1.1	D: -2.1	E: i

New compounds follow:
Codes – A = rRNA inh HTS; B = rRNA inh HTS OD600; C = rRNA inh HTS RFP; D = MLL AF4-AF9 inh; E = FGF22 binding
CCCCCCCCNCCS(=O)(=O)NCc1ccccc1
  A: 10	B: -25	C: 7.7	D: -2.6	E: i
CCCCN1C(=O)C(CC(=O)NC2CCCC2)CC(C(=O)N(CC)CC)=C1C (configuration not stated)
  A: 3	B: 4	C: -1.1	D: 2.8	E: i
CCCNC(=O)Nc1ccc2c(c1)OC[C@H](C)N(C(=O)CC)C[C@@H](C)[C@@H](OC)CN(C)C2=O
  A: 2	B: 3	C: 0.4	D: -3.7	E: i
C[C@@H]1CN([C@H](C)CO)C(=O)c2cc(NC(=O)NC3CCCCC3)ccc2O[C@H]1CN(C)C(=O)Nc1ccc(C(F)(F)F)cc1
  A: -4	B: -7	C: -1.8	D: -2.1	E: i
C[C@H]1CN([C@@H](C)CO)C(=O)c2cccc(NS(=O)(=O)c3ccccc3)c2O[C@H]1CN(C)CC1CC1
  A: -1	B: -7	C: -2.6	D: -2.5	E: i
COc1ccccc1CCn1cnc(-c2cccc(Cl)c2)c1CC(C)C
  A: -22	B: -50	C: 16	D: 2.0	E: i
CC=Cc1ccc2n(c1=O)C[C@H]1[C@H](CO)[C@@H](C(=O)NC3CCCC3)N(Cc3cccnc3)[C@@H]21 (mixture of isomers)
  A: 0	B: -12	C: -0.6	D: -4.7	E: i
CCC(=O)Nc1ccc2c(c1)C(=O)N(C)[C@@H]1CC[C@@H](CC(=O)NC3Cc4ccccc4C3)O[C@@H]1CO2
  A: -1	B: -8	C: -2.5	D: -5.3	E: i
COc1ccc(NC(=O)Nc2ccc3c(c2)C(=O)N([C@H](C)CO)C[C@H](C)[C@H](CN(C)C(=O)Nc2c(C)noc2C)O3)cc1
  A: -2	B: 14	C: -0.4	D: -3.8	E: i
CCC(=O)N1C[C@H](O)COC[C@H]2O[C@@H](CC(=O)NCc3cc(F)cc(F)c3)CC[C@@H]21
  A: 2	B: 14	C: -1.7	D: -6.8	E: i

Some of the entries above, set out differently.
CCOC(=O)C1(C)CCN1C(=O)c1csnn1 (configuration not stated)
- rRNA inh HTS = 9
- rRNA inh HTS OD600 = 19
- rRNA inh HTS RFP = 0.4
- MLL AF4-AF9 inh = -2.9
- FGF22 binding = i
CC(C)C[C@H]1CN([C@@H](CC(C)C)CN2CCC[C@@H]2CN2C(=S)NC[C@@H]2Cc2ccc(O)cc2)C(=S)N1CC1CCCCC1
- rRNA inh HTS = 26
- rRNA inh HTS OD600 = 19
- rRNA inh HTS RFP = 11
- MLL AF4-AF9 inh = 6.8
- FGF22 binding = i
O=C(C[C@@H]1CC[C@@H](NC(=O)Cc2ccccn2)[C@@H](CO)O1)NCCCN1CCOCC1
- rRNA inh HTS = 2
- rRNA inh HTS OD600 = 1
- rRNA inh HTS RFP = -3.3
- MLL AF4-AF9 inh = -1.0
- FGF22 binding = i
C[C@H]1CN([C@@H](C)CO)S(=O)(=O)c2ccc(C#CC3CCCC3)cc2O[C@@H]1CN(C)C(=O)Nc1cc(F)ccc1F
- rRNA inh HTS = 2
- rRNA inh HTS OD600 = 0
- rRNA inh HTS RFP = -5.5
- MLL AF4-AF9 inh = 3.0
- FGF22 binding = i
